Screening results deposited in PubChem BioAssay by ICCB-Longwood Screening Facility, Harvard Medical School.
Polio RdRp inh: poliovirus RdRp elongation inhibitors, primary screen, biochemical, fluorescence polarization, total intensity; AID 588519, 2011; actives 0.66% (n = 150,000); % elongation, % (compound at 16.7 µg/mL); Genome polyprotein (Poliovirus type 1 (strain Mahoney)), P03300; poliovirus polymerase elongation; stronger effect = lower value; in the data active = % elongation below about 90%; also: some results filed as inactive read as strong as hits
Target sequence (P03300 1749-2209 limits assumed): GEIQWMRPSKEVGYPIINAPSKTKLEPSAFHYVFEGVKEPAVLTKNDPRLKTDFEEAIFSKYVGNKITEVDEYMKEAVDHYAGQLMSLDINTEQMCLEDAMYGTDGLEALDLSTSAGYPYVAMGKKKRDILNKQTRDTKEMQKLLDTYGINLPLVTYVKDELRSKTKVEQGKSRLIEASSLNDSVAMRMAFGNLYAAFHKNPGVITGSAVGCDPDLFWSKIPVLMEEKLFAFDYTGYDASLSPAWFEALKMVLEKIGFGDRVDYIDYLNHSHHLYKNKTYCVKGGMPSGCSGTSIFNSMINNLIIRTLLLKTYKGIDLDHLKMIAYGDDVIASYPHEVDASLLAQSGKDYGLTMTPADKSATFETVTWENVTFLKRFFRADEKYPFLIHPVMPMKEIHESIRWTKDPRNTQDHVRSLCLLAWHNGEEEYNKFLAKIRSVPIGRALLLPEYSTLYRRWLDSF
Polio RdRp inh intensity: recorded beside Polio RdRp inh, whose call it bears; % elongation; measured here: total intensity read-out; formula for this scale not given here;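 total fluorescence in place of polarization; lower means less elongation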
* marks the source's active call; other numbers are inactive results.

SMILES	Polio RdRp inh	Polio RdRp inh intensity
O=C(Cn1ncc2c3ccccc3n(Cc3cccc(Cl)c3)c2c1=O)N1CCCCCC1	140	154
COc1cc(OC)c(NC(=O)c2c(C)oc3ncn(C)c(=O)c23)cc1Cl	112	114
Cc1ccc2nc(NCc3ccccc3)c3nnnn3c2c1	108	97
COC(=O)c1cc2sccc2n1CC(=O)Nc1ccc(C)cc1C	107	116
COc1ccccc1-c1nnc(C2CCN(C(=O)c3ccc(Cl)cc3)CC2)o1	107	105
Cc1cc(C)cc(NC(=O)COc2cccc3c(=O)n(C)ccc23)c1	110	114
CCn1c(C)c(C)c2cc(C(=O)NCCc3cc(OC)c(OC)c(OC)c3)ccc21	104	110
CCc1ccc(CNC(=O)C2CCN(C(=O)c3ccc(-n4ccc5ccccc54)s3)CC2)cc1	102	108
CN(C)c1ccc(CNC(=O)C2CCN(C(=O)c3ccc(-n4ccc5ccccc54)s3)CC2)cc1	103	106
O=C(NCc1cccs1)c1ccc(CSc2nc3ccncc3n2Cc2ccccc2F)cc1	112	107
Cc1cccc(CSc2nc3cccnc3n2Cc2ccc(C(=O)NCc3ccco3)cc2)c1	104	106
COc1cccc(CNC(=O)CSc2nnc(C)c3c(C)n(-c4ccccc4)nc23)c1	100	109
CCc1ccccc1NC(=O)[C@@H](c1ccccc1)N1Cc2ccccc2C1=O	105	106
CCSc1nc2ccccc2c(OCc2ccc(Cl)cc2)c1C(=O)OC	106	112
COc1ccc2c(C)c(CC(=O)NCCc3ccc(Cl)cc3)c(=O)oc2c1C	108	95
CCCN(CCC)CCNC(=O)CS(=O)Cc1nc(-c2ccc(OC)c(OC)c2)oc1C (centres undefined)	108	107
CC1CCN(S(=O)(=O)c2ccc3c(c2)N(CC(=O)NCc2ccccc2)C(=O)CO3)CC1	100	103
CCc1nc2ccc(C(=O)NCCc3ccc(OC)cc3OC)cc2nc1CC	103	107
COc1ccccc1CNC(=O)CN1C(=O)COc2ccc(S(=O)(=O)N3CCC(C)CC3)cc21	106	109
COc1ccc(-c2cc(C)no2)cc1S(=O)(=O)N1CCN(c2cccc(C)c2)C(C)C1 (centres undefined)	103	106

Filtered by structure, the entries above containing a Cl atom (5)
SMILES	Polio RdRp inh	Polio RdRp inh intensity
O=C(Cn1ncc2c3ccccc3n(Cc3cccc(Cl)c3)c2c1=O)N1CCCCCC1	140	154
COc1cc(OC)c(NC(=O)c2c(C)oc3ncn(C)c(=O)c23)cc1Cl	112	114
COc1ccccc1-c1nnc(C2CCN(C(=O)c3ccc(Cl)cc3)CC2)o1	107	105
CCSc1nc2ccccc2c(OCc2ccc(Cl)cc2)c1C(=O)OC	106	112
COc1ccc2c(C)c(CC(=O)NCCc3ccc(Cl)cc3)c(=O)oc2c1C	108	95

Further structures.
SMILES	Polio RdRp inh	Polio RdRp inh intensity
Cc1ccc2c(c1)C(=O)OC(C(=O)Nc1ncc(Cc3ccc(C(C)C)cc3)s1)C2 (centres undefined)	106	109
CCC(=O)C1=C(c2ccc(F)cc2)N(C(=O)CC)n2cnnc2S1	86*	78*
COc1ccc(NC(=O)CSc2nc3ccccc3nc2N2CCCCC2)cc1	106	105
COc1ccccc1CCNC(=O)Cc1c(C)c2cc(Cl)c(O)cc2oc1=O	110	111
Cc1ccc(CN2C(=O)c3ccccc3Sc3ccc(C(=O)NCCCN4CCOCC4)cc32)cc1	116	106
COC(=O)c1scc(-c2ccccc2)c1S(=O)(=O)Nc1cccc(C)c1C	111	114
CCOc1ccc(CNC(=O)c2ccc(Sc3ccc(Cl)cc3)c(NC(C)=O)c2)cc1	106	102
CCOc1cccc(C(=O)Nc2ccc3oc(-c4ccc(C(C)(C)C)cc4)nc3c2)c1	108	115
O=S(=O)(c1ccccc1)c1nnn2c1nc(NCc1ccccc1)c1cc(Cl)ccc12	107	105
CCc1ccccc1Nc1cc(C(=O)NCCc2ccccc2)c2ccccc2n1	114	109
O=C(Nc1sc2c(c1C(=O)NCc1ccccc1)CCCC2)c1cc(=O)c2cc(Cl)ccc2o1	108	113
COc1ccc(CN(Cc2ccco2)C(=O)COc2ccccc2Cl)cc1	104	110
COc1ccc(-n2nc(C(=O)Nc3cccc(Cl)c3)c3c4ccccc4n(C)c3c2=O)cc1Cl	104	106
CCC(C)NC(=O)Cn1c(=O)n(-c2ccc(C)c(C)c2)c(=O)c2c3c(sc21)CCCCC3 (centres undefined)	106	103
Cc1ccc(NC(=O)c2c(NC(=O)c3ccccc3)sc3c2CCC3)cc1	103	112
Cc1cccc(OCC(=O)Nc2ccc(S(=O)(=O)N(Cc3ccccc3)c3ccccc3)cc2)c1	106	103
CCN1CCOC(=O)C1CC(=O)Nc1ccc(Br)cc1 (centres undefined)	106	105
CCOC(=O)c1cccc(NC(=O)CCn2nc(C)c(S(=O)(=O)N3CCCCC3)c2C)c1	100	95
CNc1c(NC(=O)c2ccc(OC)c(OC)c2)c(=O)oc2ccccc12	105	111
CCC1CCCCN1C(=O)CSc1nc(-c2ccc(OC)c(OC)c2)cc(C(F)(F)F)n1 (centres undefined)	107	108
CCOc1ccc(C2c3c(-c4ccccc4O)n[nH]c3C(=O)N2Cc2cccnc2)cc1OC (centres undefined)	106	105
CCCN(C(=O)Cn1nc(Cc2cccnc2)c2ccccc2c1=O)c1ccc(C(C)C)cc1	102	99
CC(=O)c1ccc(NC(=O)c2ccc3c(c2)nnn3C2CCCC2)cc1	101	102
CCCN(CCC)CCNC(=O)c1cc2c(-c3ccc(Cl)cc3)nn(C)c2s1	96	99
Cc1cc2nc(-c3cccc(NC(=O)C(C)C)c3C)oc2cc1C	100	98
COc1ccc(OC)c(-c2nnc3n(CCc4ccccc4)c(=O)c4ccccc4n23)c1	109	106
Cc1ccc(C)c(N2CCN(Cc3csc(C)c3C)CC2)c1	105	98
COc1ccc(C2=NC(c3ccncc3)=Nc3ccc(OC)cc3N2)cc1	101	102
O=c1c2ccccc2n(Cc2ccccc2F)c(=O)n1-c1cccc(F)c1	106	108
CCCN(C(=O)c1cc2c(Cl)nc3ccccc3c2s1)c1cccc(C)c1	105	105
Cc1ccc(-c2nnc(Nc3ccccc3O)c3ccccc23)cc1	102	104
Cc1ccc2nc(-c3ccccn3)c(Nc3ccc(F)cc3)n2c1	107	115
O=C(OCc1cc(=O)n2nc(C3CCCCC3)sc2n1)c1ccccc1Cl	114	110
C=Cc1ccc(CN2C(=O)N(c3cccc(Cl)c3)S(=O)(=O)c3ccccc32)cc1	110	115
CC1CCN(CCCNC(=O)c2cn(C)c3ccc(S(=O)(=O)N(C)C4CCCCC4)cc3c2=O)CC1	108	108
Cc1cccc(NC(=O)C2CCCN2S(=O)(=O)c2cccc3nsnc23)c1C (centres undefined)	106	111
Cc1ccc(OCC(=O)OCc2cc(=O)n3nc(C4CCCCC4)sc3n2)cc1C	106	111
O=C(CN1C(=O)COc2ccc(S(=O)(=O)N3CCCCCC3)cc21)N1CCN(c2cccc(C(F)(F)F)c2)CC1	101	103
Cc1ccc(S(=O)(=O)c2nc(-c3ccco3)oc2SCc2ccccc2Cl)cc1	107	107
Cc1ccc(S(=O)(=O)N2CCC(n3c(C)nc4cccnc43)CC2)c(C)c1	113	111

Some of these compounds in order of number of heavy atoms, lowest first:
SMILES	Polio RdRp inh	Polio RdRp inh intensity
O=C(OCc1cc(=O)n2nc(C3CCCCC3)sc2n1)c1ccccc1Cl	114	110
Cc1ccc(OCC(=O)OCc2cc(=O)n3nc(C4CCCCC4)sc3n2)cc1C	106	111
O=C(CN1C(=O)COc2ccc(S(=O)(=O)N3CCCCCC3)cc21)N1CCN(c2cccc(C(F)(F)F)c2)CC1	101	103

Returning to the listing with the two entries that preceded the break.
SMILES	Polio RdRp inh	Polio RdRp inh intensity
Cc1ccc(S(=O)(=O)c2nc(-c3ccco3)oc2SCc2ccccc2Cl)cc1	107	107
Cc1ccc(S(=O)(=O)N2CCC(n3c(C)nc4cccnc43)CC2)c(C)c1	113	111
CC(=O)c1ccc(NC(=O)C2CCN(S(=O)(=O)c3ccc4c(c3)CCCN4C(=O)C3CCC3)CC2)cc1	112	110
COc1ccc(CNC(=O)Cc2c(C)c3c(cc(C)c4c(C)coc43)oc2=O)cc1OC	108	110
Cc1ccc(NC(=O)c2nc(S(C)(=O)=O)ncc2N(Cc2ccccc2)Cc2ccco2)c(C)c1	111	109
CC(C)CCNC(=O)c1c[nH]c2ccc(S(=O)(=O)Nc3cccc(C(F)(F)F)c3)cc2c1=O	104	102
COc1ccc2c(CNCc3ccco3)c(C(=O)O)n(Cc3cccc(F)c3)c2c1	106	99
CCCCCC(=O)N1c2ccccc2C(C)(c2ccccc2)CC1(C)C (centres undefined)	103	106
Cc1c(C(=O)N(C)C)sc2c1c(=O)n(-c1ccccc1C(F)(F)F)c(=O)n2Cc1cccc(F)c1	108	112
Cc1cc(C)c(S(=O)(=O)N2CCC(N3CCN(Cc4ccccc4)C(=O)C3=O)CC2)c(C)c1	104	109
Cc1cc(C)n2nc(CNC(=O)c3cccc(N(C)C)c3)nc2n1	105	105
CCOc1ccc(NC(=O)c2c(NCc3cccnc3)sc3c2CCCC3)cc1	111	104
COc1cccc(NC(=O)CN2C(=O)c3ccccc3Sc3ncccc32)c1	106	111
CCn1c2ccccc2c2nnc(N3CCN(c4cc(C)ccc4C)CC3)nc21	107	113
O=C(OCc1ccco1)c1ccc2c(c1)N(Cc1ccc([N+](=O)[O-])cc1)C(=O)c1ccccc1S2	111	113
CCCc1nn2c(=O)cc(COC(=O)c3ccccc3NC(=O)COc3ccccc3)nc2s1	108	109
CC(C)NC(=O)c1ccc(NC(=O)N2CCCCc3ccccc32)cc1	103	108
COc1ccc(N2CCN(S(=O)(=O)c3ccc4oc(=O)c5ncn(C)c5c4c3)CC2)cc1	111	110
CCOc1ccc(NC(=O)c2cnn(-c3ccc(C)c(C)c3)c2C2CCN(C(=O)OC(C)(C)C)CC2)cc1	107	108
CC(C)(C)CC(=O)NCC(c1ccc2c(c1)OCO2)N1CCN(c2ccccc2)CC1 (centres undefined)	106	107
COC(=O)c1c(NC(=O)c2cc3nc(-c4ccc(Br)cc4)cc(C(F)(F)F)n3n2)sc2c1CCCC2	102	102
Cc1cccc(Cn2c(=O)n(Cc3ccc(C(=O)NC4CCN(Cc5ccccc5)CC4)cc3)c(=O)c3ccccc32)c1	102	105
Cc1ccc(C)c(N2CCN(CCCNC(=O)c3cnn(-c4ccccc4Cl)c3C3CCN(C(=O)OC(C)(C)C)CC3)CC2)c1	111	104
COc1ccccc1NC(=O)CSc1ncc2c(n1)-c1cc(Cl)ccc1N(Cc1ccccc1)S2(=O)=O	110	117
COc1ccc(CCN2C(=O)c3[nH]nc(-c4ccccc4O)c3C2c2ccc(OC)c(OC)c2)cc1 (centres undefined)	111	111
COc1ccc(NC(=O)c2cc(S(=O)(=O)N3CCCCC3)cn2C)cc1Cl	105	108
COc1cccc(CNC(=O)Cn2ccc3cc(S(=O)(=O)N4CCCC4)ccc32)c1	104	106
O=C(Nc1ccc2oc(-c3cccnc3)nc2c1)c1ccccc1F	101	104
COCCNC(=O)Cn1nc(C)c2c(C)n(-c3ccc(C)cc3)nc2c1=O	108	92
Cc1ccc2c(=O)cc(C(=O)Nc3c(C(=O)c4ccc(F)cc4)oc4ccccc34)oc2c1C	101	109
COc1ccccc1C(=O)N(Cc1nc(-c2cccc(C)c2)no1)C(C)C	108	110
Cc1ccc(NC(=O)C2CCN(S(=O)(=O)c3ccc4c(c3)CCCC(=O)N4)CC2)c(Br)c1	105	109
COc1ccc(/C=C/c2nc(C#N)c(NCCc3ccccc3)o2)cc1OC	106	97
Cc1c(NC(=O)C(C)(C)Oc2ccc(Cl)cc2)cccc1-c1nc2ccccc2o1	106	105
O=C(CCCn1c(=O)c2cccn2c2ccccc21)Nc1cccc(Cl)c1	103	107
CNC(=O)c1ccc(Nc2nnc(-c3ccc(C)c(S(=O)(=O)N4CCOCC4)c3)c3ccccc23)cc1	105	103
Cc1ccc(NC(=O)CSCc2cnn(-c3ccccc3)c2-n2cccc2)c(Cl)c1	111	113
Cc1cc2nc(NC(=O)c3ccc(S(=O)(=O)N4CCOCC4)cc3)sc2cc1C	107	114
Cc1ccc(CN2CCC(CNC(=O)Nc3c(C)cccc3C)C2)cc1 (centres undefined)	101	103
CCOC(=O)c1ccc(NC(=O)C(C)Sc2nc(=O)cc(N)n2CCc2ccccc2)cc1 (centres undefined)	105	106
Cc1noc(-c2ccc(N3CCCCC3)c([N+](=O)[O-])c2)n1	113	117
COc1ccc(CC(=O)Nc2nc3c(s2)CC(C(C)(C)C)CC3)cc1 (centres undefined)	107	105
Cn1c(=O)c2sccc2n2c(CCC(=O)NCc3ccc(F)cc3)nnc12	106	108
CCc1cccc(-n2nnc(-c3nsc(NC(=O)c4cccc(OC)c4)n3)c2C)c1	107	115
COc1ccc(S(=O)(=O)NCCc2csc3nc(-c4ccc(OC)c(OC)c4)nn23)cc1C	108	113
COc1ccc2cc(CNc3ccccc3)c(=O)n(CC(=O)Nc3ccc(C(C)=O)cc3)c2c1	102	107
CCc1c(C)nc2nncn2c1Nc1ccc(Cl)cc1	110	109

Only part of the results is shown (hit frequency here may not be typical).
